Rce1 inhib – blocks yeast Ras-converting enzyme. Q03530. yeast membranes, quenched prenylated peptide cleavage fluorescence. calls only. actives 0.27% (n = 290,000);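 active = fall in fluorescence gain of 50% or more versus controls, with final raw signal at or below 3038400; inconclusive = same 50% fall but final raw signal above 3038400; inactive = fall in fluorescence gain under 50%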;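 also: plate controls were neutral control wells for no effect and wells lacking membranes for full effect; tested at 10 µM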
Yeast UUG start – modulators of start codon recognition fidelity in yeast | actives 0.13% (n = 350,000) | activity score, % at 18.7 µM | AID 602363 | S. cerevisiae UUG-firefly luciferase reporter, luminescence/redox ratio;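 active = replicate mean at a twofold rise or more, about +100% in these data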;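 also: firefly luciferase made from a UUG start codon reports start codon fidelity; reporter light over untreated wells divided by growth signal over untreated wells; some hits fall short of that in this replicate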
eIF4H inh – inhibitors of RNA binding by human eIF4H. eIF4H fluorescence polarization binding assay. inhibition, % at 35 µM. actives 0.94% (n = 290,000);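 active = 50% or more with normal probe brightness, or confirmed in later tests; inconclusive = above 50% with abnormal brightness, or retests that disagree; inactive = below 50% or failed in later tests; about a fifth of its hits are not listed in these tables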;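 also: calls also rest on retests at 20 µM and on dose response follow-up; 0% = protein and probe with vehicle and 100% = probe without protein; strong numbers were not always called active; many hits fall short of the cut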
PABP FP inh – PABP-poly(A) binding inhibition. P11940. PABP-poly(A) RNA binding, fluorescence polarization. inhibition, % at 35 µM. actives 1% (n = 290,000). AID 2014;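 active = 50% or more with normal probe brightness, or confirmed in later tests; inconclusive = above 50% with abnormal brightness, or retests that disagree; inactive = below 50% or failed in later tests; about a fifth of its hits are not listed in these tables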;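 also: calls also rest on retests at 20 µM and on dose response follow-up; controls were probe without protein and protein plus probe with vehicle; some compounds called inactive have numbers as strong as hits; many hits fall short of the cut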
Target sequence (P11940 whole entry, looked up): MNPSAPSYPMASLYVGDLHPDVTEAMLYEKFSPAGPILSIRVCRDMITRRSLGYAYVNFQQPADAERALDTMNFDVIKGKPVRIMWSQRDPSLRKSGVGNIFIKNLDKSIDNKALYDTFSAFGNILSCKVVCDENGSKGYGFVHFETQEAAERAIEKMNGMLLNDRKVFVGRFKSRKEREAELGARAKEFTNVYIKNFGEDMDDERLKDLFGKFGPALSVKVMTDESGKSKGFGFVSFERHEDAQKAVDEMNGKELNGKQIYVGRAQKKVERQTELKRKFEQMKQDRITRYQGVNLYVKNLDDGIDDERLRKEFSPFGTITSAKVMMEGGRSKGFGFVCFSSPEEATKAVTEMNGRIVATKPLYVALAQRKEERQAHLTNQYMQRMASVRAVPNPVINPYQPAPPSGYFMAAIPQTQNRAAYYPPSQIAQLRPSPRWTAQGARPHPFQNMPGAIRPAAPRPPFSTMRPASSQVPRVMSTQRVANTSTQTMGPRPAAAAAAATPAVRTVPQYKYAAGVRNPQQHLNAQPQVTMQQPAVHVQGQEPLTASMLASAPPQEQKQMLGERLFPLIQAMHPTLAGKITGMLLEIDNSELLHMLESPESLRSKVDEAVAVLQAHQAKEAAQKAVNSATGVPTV
Env fusion inh – inhibitors of HIV Env-mediated cell fusion; inhibition, % at 12.3 µM; HeLa-JRFL Env/CEM21 cell fusion, luciferase; actives 1.1% (n = 360,000); AID 651610;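 active = mean replicate inhibition score of at least 50 and every replicate individually at or above 50; inconclusive = only one of the two criteria met; inactive = mean below 50 and not all replicates reaching 50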;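 also: 0% = plate neutral controls and 100% = maraviroc near 300 nM; one replicate is shown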
MT1-MMP act inh – MT1-MMP (human) activation inhibition; P50281; HT1080 RFP-PRO-GFP cells, GFP/RFP ratio fluorescence, overnight; percent of plate control window, DMSO zero; GFP/RFP ratio change, % at 20 µM; actives 0.061% (n = 360,000);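 active = GFP/RFP ratio change of at least 30% with cell ATP level not reduced by more than half and red fluorescence within 50% of control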; also: strong numbers were not always called active
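Material: RFP-PRO-GFP reporter HT1080 cells. Dosing: single-point 20 µM compound, 1% DMSO. Controls: DMSO and RFP-L50D-GFP cell wells. Timing: cells overnight before dosing, compound overnight, 37 °C, 5% CO2. Measure: GFP/RFP fluorescence ratio.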
CSC inhib – cancer stem cell inhibition; actives 1.1% (n = 300,000); cancer stem cell-like cells viability, luminescence; AID 2717; inhibition, % at 7.5 µM;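 active = mean at 75% or more and at least half the replicates too; inconclusive = mean and replicates disagree; tested in HMLE shEcad cells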;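 also: 0% = median of negative and 100% = median of positive control wells; the first replicate is given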
MT1-MMP act inh RFP – further read-out of MT1-MMP act inh, marked with its call; RFP signal change, %; measured here: RFP expression control read;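 0 = vehicle wells; hits needed this value within 50% of zero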
* hit, by the source's call; i = inactive; ? = inconclusive; nt = no result given; & = joins results of further samples.

SMILES	Rce1 inhib	Yeast UUG start	eIF4H inh	PABP FP inh	Env fusion inh	MT1-MMP act inh	MT1-MMP act inh RFP	CSC inhib
COc1ccc2c(c1)CCc1c(C(=O)Nc3c(C)nn(Cc4ccccc4)c3C)noc1-2	i	nt	4	-6	43	-1	-10	4
COc1ccc(CN2CCNC(=O)C2CC(=O)NCCCn2nnc3ccccc32)cc1C (stereo unspecified)	i	-12	-8	11	61*	-2	2	3
Cc1ccc(Cn2ncc3c(N4CCN(CCc5ccccc5)CC4)ncnc32)cc1	i	-11	-4	-10	47	-2	-27	-1
COC(=O)c1ccc2c(=O)n(Cc3ccc(C(=O)NCCCN4CCC(C)CC4)cc3)c(=S)[nH]c2c1	i	nt	-6	-14	-4	nt	nt	-1
COc1ccc(NC(=O)COc2coc(CN3c4ccccc4CC3C)cc2=O)cc1 (stereo unspecified)	i	3	nt	nt	5	1	0	18
O=C(OCC(=O)N1CCOCC1)c1cccc(S(=O)(=O)N2CCCc3ccccc32)c1	i	nt	7	14	-27	-1	-3	-14
COc1cccc(CN(C)C(=O)CCN(c2ccccc2)S(=O)(=O)c2ccc(C)cc2)c1OC	i	nt	nt	nt	14	-6	-9	-7
CCC(=O)Nc1cccc(NC(=O)CN2CCN(c3ccccc3OC)CC2)c1	i	-5	-7	-5	nt	3	-1	-20
COc1ccc(NCC(=O)N/N=C2\CCCC(C)C2)cc1 (stereo unspecified)	nt	nt	8	-2	3	5	2	nt
CN[C@H]1CCc2cc(OC)c(OC)c(OC)c2-c2ccc(OC)c(=O)cc21	i	-15	nt	nt	-157	17	-5	46
COc1ccc(CCN2C(=O)c3[nH]nc(-c4ccccc4O)c3C2c2ccccc2)cc1OC (stereo unspecified)	i	-15	-5	5	147*	2	-10	nt
COc1ccc(OC)c(S(=O)(=O)NCC(c2ccco2)N2CCc3ccccc3C2)c1 (stereo unspecified)	i	7	nt	nt	9	-4	-1	4
CC(=O)Nc1ncnc2c1c(-c1ccc(Cl)cc1)nn2C(C)(C)C	i	nt	4	-4	17	-4	-4	19
O=C(CCc1nnc2ccc(N3CCOCC3)nn12)Nc1ccc(F)cc1F	i	-4	-10	2	1	0	8	2
CC(=O)NC12CC3CC(C1)CC(C(=O)OCC(=O)c1cc(C)n(C)c1C)(C3)C2	nt	-43	nt	nt	nt	0	-5	-12
CCCCN(C=O)c1c(CC)nc2ccc(C(=O)NCCOc3ccc(OC)cc3)cn12	nt	-24	nt	nt	-13	-1	-4	nt
O=S(Cc1ccc(Br)cc1)Cc1nnc(SCc2ccc(Cl)cc2)n1-c1ccccc1 (stereo unspecified)	i	-15	15	7	65*	-8	-19	7
O=C(N/N=C/c1ccco1)c1[nH]ncc1Br	i	-14	-8	17	-17	1	3	11
O=C(NNc1nc2cc3c(cc2s1)OCCO3)c1ccc(F)cc1	i	nt	1	?	-11	3	11	-8
CCc1cc(=O)oc2cc(OCC(=O)NCCCn3ccnc3)ccc12	i	-11	-7	-12	6	4	1	-12
COC(=O)CSc1cc(C(F)(F)F)nc(-c2ccccn2)n1	i	-24	-11	-4	-49	2	10	10
Cc1cccc(C2NS(=O)(=O)N=C2N)c1 (stereo unspecified)	i	-16	1	0	-17	1	2	8
Cc1cccc(NC(=O)Cn2c(/C=C/c3ccccc3)nc3ccccc32)c1	i	nt	-6	13	-15	-2	-3	14
Cc1ccc(SC(c2ccc(C)cc2)C(Cn2cncn2)C(=O)c2ccccc2)cc1 (stereo unspecified)	i	nt	10	-2	nt	-9	-10	-6
CN(CC(=O)Nc1ccc(Cl)cc1F)C1=NS(=O)(=O)c2ccccc21	nt	-22	nt	nt	8	-5	-4	-21

Complete entries, looked up by structure:
`O=S(Cc1ccc(Br)cc1)Cc1nnc(SCc2ccc(Cl)cc2)n1-c1ccccc1` (stereo unspecified) is entered as Rce1 inhib: i; Yeast UUG start: -15; eIF4H inh: 15; PABP FP inh: 7; Env fusion inh: 65*; MT1-MMP act inh: -8; MT1-MMP act inh RFP: -19; CSC inhib: 7
`CCC(=O)Nc1cccc(NC(=O)CN2CCN(c3ccccc3OC)CC2)c1` is entered as Rce1 inhib: i; Yeast UUG start: -5; eIF4H inh: -7; PABP FP inh: -5; Env fusion inh: nt; MT1-MMP act inh: 3; MT1-MMP act inh RFP: -1; CSC inhib: -20

Additional records follow:
SMILES	Rce1 inhib	Yeast UUG start	eIF4H inh	PABP FP inh	Env fusion inh	MT1-MMP act inh	MT1-MMP act inh RFP	CSC inhib
COc1ccc(C)cc1NC(=O)c1ccc(NS(=O)(=O)c2c(C)noc2C)cc1	i	3	-7	-4	5	3	0	-2
CC12CCC(C(=O)N(c3ccccc3Cl)C1=O)C2(C)C (stereo unspecified)	nt	-4	-3	3	-8	3	8	-7
NC(=O)NC(CC(=O)OCC(=O)NC(=O)NCc1ccco1)c1ccc(Cl)cc1 (stereo unspecified)	i	-12	8	-1	nt	6	1	nt
CCOc1[nH]c(/N=C/c2ccco2)c(C#N)c1C#N	nt	-24	100*	126*	nt	-16	-1	-9
Cc1ccc(/C(=N\S(=O)(=O)c2ccc(Br)cc2)Nc2ccccc2C)cc1	i	-15	-15	1	-3	1	0	-7
Cc1cc(C(=O)CN2C(=O)NC(C)(c3cccc(Br)c3)C2=O)c(C)n1Cc1ccco1 (stereo unspecified)	i	-1	-2	9	nt	-3	-9	14
CCCCCC1CC(CC(=O)Nc2ccc([N+](=O)[O-])cc2)C(=O)O1 (stereo unspecified)	i	nt	2	9	7	4	-5	0
CCOC(=O)c1cc(CC)sc1NC(=O)c1ccc2c(c1)OCCO2	i	-15	-7	-5	nt	-1	2	nt
O=C1N(Cc2ccc(F)cc2Cl)c2ccccc2C12OCCCO2	i	3	-1	2	?	4	5	2
OC(c1ccccc1)(c1ccc(F)cc1)C(c1ccccc1)N1CCOCC1 (stereo unspecified)	i	0	-7	8	nt	-3	3	25
S=C(Nc1ccccn1)c1ccccn1	i	-10	-7&21	-2&7	nt	5	1	8
COc1ccc2cc(CN(C(=O)Nc3ccccc3)C3CCCC3)c(=O)[nH]c2c1	i	-13	-3	-6	-386	2	2	-10
Cc1c(/C=N\NC(=O)C2COc3ccc(C(C)(C)C)cc3O2)c2ccccc2n1C (stereo unspecified)	i	-19	-6	3	-3	5	-1	nt
CCCCON1C(=O)c2cccc3cccc(c23)C1=O	i	-4	4	8	-5	-3	2	-10
O=[N+]([O-])c1cc(Cl)ccc1N1CCN(c2cccc(C(F)(F)F)c2)CC1	i	-23	1	-3	13	-4	-10	16
COc1ccc(S(=O)(=O)N2CCN3CCCC3C2)cc1 (stereo unspecified)	i	-5	6	-5	-6	-3	-3	2
COC(=O)c1c(NC(=O)CSc2nnnn2-c2ccccc2)sc2c1CCC(C(C)(C)C)C2 (stereo unspecified)	i	-13	-3	-3	6	-1	-5	0
CN(c1ccccc1)c1nc(N2CCCC2)nc(-n2ccnc2)n1	i	-8	0	5	-22	2	-13	19
CCC(=O)c1ccc(OCC(=O)OCC(=O)N2CCN(c3ccc(OC)cc3)CC2)cc1	i	nt	nt	nt	3	5	2	3
COc1ccc(NC(=O)CCOc2ccccc2C)cc1S(=O)(=O)N1CCCCC1	i	6	nt	nt	16	-8	-23	3
COc1ccc(CCNC(=S)N2CCN(S(=O)(=O)c3ccccc3)CC2)cc1	i	nt	nt	nt	3	1	2	0
CCN(Cc1ccccc1)S(=O)(=O)c1ccc(C(=O)N2CCN(c3nc4ccccc4s3)CC2)cc1	i	-2	0	0	30	-10	-31	22
c1ccc(CNC2=NCCC2)nc1	nt	-29	-14	-1	1	-2	2	-8
CN(C)S(=O)(=O)c1ccc(NC(=O)COc2ncnc3c2cnn3-c2ccccc2)cc1	i	nt	-11	1	-13	0	2	-2
Cc1cc(C(=O)OCC(=O)N2C(C)CCCC2C)c2ccccc2n1 (stereo unspecified)	nt	-3	nt	nt	-18	0	-4	-3

(continued)
SMILES	Rce1 inhib	Yeast UUG start	eIF4H inh	PABP FP inh	Env fusion inh	MT1-MMP act inh	MT1-MMP act inh RFP	CSC inhib
Cn1c(Cn2c(=O)sc3ccccc32)nnc1SCC(=O)NC1CCCCC1	i	-6	-5	11	nt	1	8	-8
CC(C(=O)NC1CCCC1)N1CCN(Cc2ccccc2)CC1 (stereo unspecified)	i	nt	9	14	13	-2	1	-4
O=C(CCC(=O)Nc1ccc(F)cc1)N/N=C/c1ccccc1O	i	nt	2	37	-16	5	4	6
Cc1c(NC(=O)C(C)OC(=O)c2cccc([N+](=O)[O-])c2)c(=O)n(-c2ccccc2)n1C (stereo unspecified)	i	nt	8	32	-4	-1	-1	-6
CN1CCN(c2ccccc2NC(=O)c2cc3c(s2)-c2ccccc2OC3)CC1	i	-23	3	3	7	-7	-4	42
CCOc1cc2[nH]c(=S)n(CC3CCCO3)c(=O)c2cc1OCC (stereo unspecified)	i	-21	1	-5	-35	5	-1	-9
Cn1nnc2cc(C(=O)N3CCN(c4ccccc4)CC3)ccc21	i	-10	-8	-5	-14	3	4	nt
C=CCn1c(=O)[nH]c2cc(C(=O)N3CCN(c4cccc(Cl)c4)CC3)ccc2c1=O	i	-17	9	3	33	9	-11	-9
COc1ccc(C(=O)N2CCN(CCCc3ccccc3)CC2)cc1OC	i	-12	9	2	1	9	-1	9
CNS(=O)(=O)c1cccc(C(=O)OCC(=O)c2cc(C)n(-c3ccc4c(c3)OCO4)c2C)c1	i	nt	-6	-6	nt	2	4	-4
Cc1cc(OCC(=O)N(C(C)C)C(C)C)ccc1Cl	i	-11	-8	5	7	2	1	-13
Cc1ccc2cc(CNC(C)C)c(=O)[nH]c2c1	i	-14	19	12	nt	-2	6	-7
Cc1ccc(C2=NS(=O)(=O)N(C)C(C(=O)N3CCCCC3)=C2)cc1	i	8	0	-4	-3	-4	-1	-8
Cc1ccc2oc(-c3ccccc3)c(C(=O)O)c(=O)c2c1	i	-32	-2	-10	-334	-7	-11	-2
CC(Oc1ccc(Cl)cc1Cl)c1nc(-c2ccc(NC(=O)c3cccnc3)cc2)no1 (stereo unspecified)	i	-15	-14	-9	nt	-3	-25	20
O=C(NCc1cccnc1)C(C(=O)c1ccc(F)cc1)n1ccccc1=O (stereo unspecified)	i	-18	-6	-2	?	2	-2	-3
CCCCn1c(SCC(=O)N2CCc3ccccc32)nnc1-c1ccncc1	i	nt	-1	10	13	0	-5	-6
CC(C)Cc1nnc(NC(=O)Cc2ccccc2[N+](=O)[O-])s1	i	1	-4	-1	nt	4	1	-14
Cc1ccc(NC(=O)CCCSc2ccccc2)cc1S(=O)(=O)N1CCOCC1	i	-5	-7	10	13	-1	-16	-6
CN1CCCC(C(=O)C(C#N)c2ccccc2)C1 (stereo unspecified)	i	-13	-8	-4	-14	2	0	-3
COc1cc(NC(=O)c2ccccc2)ccc1NC(=O)c1cc2ccccc2o1	i	-9	0	1	-4	2	0	5
NC(=O)c1cc2c(s1)-c1cc(Cl)ccc1SC2	i	nt	-10	6	7	-3	2	7
Cc1ccc2[nH]c(=O)c(CN(CCO)Cc3nnnn3CCc3ccccc3)cc2c1	i	1	1	8	nt	-2	4	-12
COc1ccc(/C=N/NC(=O)Cn2cnc3c2c(=O)n(C)c(=O)n3C)c(OC)c1OC	i	-10	4	6	14	-1	-2	18
Cc1ccc(S(=O)(=O)NNC(=O)Cc2cccn2C)cc1	i	-2	-5	0	0	-1	0	-10
O=C(CCN1C(=O)c2ccc([N+](=O)[O-])cc2C1=O)Nc1nccs1	i	nt	-6	-14	14	2	6	-6
Cc1ccc(C)c(OCc2ccc(C(=O)NN)o2)c1	i	nt	-8	6	9	-2	0	-6
CCOCCCNC(=O)c1cn(CC)c2ccc(S(=O)(=O)N(C)C3CCCCC3)cc2c1=O	i	1	-1	1	9	-4	-2	-18
